Screens from PubChem BioAssay.
gsp antag: gsp mutant antagonism. gsp-mutant cells, cAMP HTRF, 30 min; control for the full effect not named in the record. Potency, µM (doses to about 76.9 µM), for inactives: top-dose activity change, negative = inhibition, hits mostly inhibitors. hit rate 0.4% among 340,000. AID 624288; active = falling curve of any shape with a large fitted effect; inconclusive = falling curve, mostly with a smaller effect; inactive = flat or rising curve; cell line not stated here;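 further: intracellular cAMP measured with PDE inhibitor Ro 20-1724 present during compound exposure; potency means the concentration at half of the fitted maximal effect; on the % scale 0 is the no-effect control and ±100 the full control effect; nearly all actives have a fitted effect of over 65% in size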
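HTRF cAMP read-out (cAMP-d2 plus anti-cAMP antibody-K in lysis buffer, 30 min RT). Before lysis, cells are exposed to compounds with […] for 30 min at 37C in DPBS containing Ca/Mg, BSA and Tween 20.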
TRPML1 ag: human mucolipin-1 channel agonism; Q9GZU1; TRPML1-expressing cells, Ca2+ dye fluorescence, FDSS; host cell line not named in the record; reference of the full effect not given here; activation, % (test concentration not listed); hit rate 0.12% among 410,000; in the data active = activation above about 50%; inconclusive = about 30% to 50%; inactive = below about 30%; further: 0% is about no effect; the text of the record puts the active cut at 80%
Target sequence (Q9GZU1 whole entry, looked up): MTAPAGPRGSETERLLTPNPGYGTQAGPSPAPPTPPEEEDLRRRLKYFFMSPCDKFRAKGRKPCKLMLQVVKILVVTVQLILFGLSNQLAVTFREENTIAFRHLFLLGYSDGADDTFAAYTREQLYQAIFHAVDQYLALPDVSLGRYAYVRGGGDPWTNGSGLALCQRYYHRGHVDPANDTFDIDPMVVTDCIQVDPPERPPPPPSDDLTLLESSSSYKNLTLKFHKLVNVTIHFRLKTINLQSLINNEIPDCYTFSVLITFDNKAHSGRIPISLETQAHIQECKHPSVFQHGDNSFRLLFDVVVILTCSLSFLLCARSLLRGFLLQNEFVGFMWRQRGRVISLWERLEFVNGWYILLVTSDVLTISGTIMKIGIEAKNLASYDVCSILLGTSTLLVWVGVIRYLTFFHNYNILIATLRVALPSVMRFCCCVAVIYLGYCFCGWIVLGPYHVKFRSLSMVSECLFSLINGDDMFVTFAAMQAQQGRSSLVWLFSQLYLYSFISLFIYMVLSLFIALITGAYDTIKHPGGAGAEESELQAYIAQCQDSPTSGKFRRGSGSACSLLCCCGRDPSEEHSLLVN
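Tet-induced TRPML1-DL cells, 1,500 per well, cultured overnight, were loaded with a no-wash Ca2+ dye for 45–90 min. Calcium fluorescence was recorded on the FDSS for 110 s after compound addition, before the EC80 agonist (4 uM 54-4) was added.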
ClpP mod: qHTS Assay for Activators of ClpP; ATP-dependent Clp protease proteolytic subunit (Bacillus subtilis (strain 168)), P80244; purified B. subtilis ClpP, FRET peptide cleavage, 20 min; Potency, µM (titrated, usually from 57.5 µM), for inactives: top-dose activity change, negative = active; hit rate 1.9% among 340,000; AID 651965, 2013; active = well fitted falling curve with a large enough effect; inconclusive = small, poorly fitted or top-dose-only effect; inactive = no such curve, though single readings can be large or run the other way; further: potency means the concentration at half of the fitted maximal effect; the source files actives as falling curves though it sought activators and does not explain the sign; nearly all actives have a fitted effect of over 65% in size; many hits overshoot -100%
Target sequence (P80244 whole entry, looked up): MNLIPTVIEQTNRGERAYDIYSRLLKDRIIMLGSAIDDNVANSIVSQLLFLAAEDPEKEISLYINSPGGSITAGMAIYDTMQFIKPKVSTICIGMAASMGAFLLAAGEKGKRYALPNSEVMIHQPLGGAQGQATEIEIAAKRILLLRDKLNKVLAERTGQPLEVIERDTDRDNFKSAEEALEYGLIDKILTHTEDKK
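FRET quenching reversal measured ClpP activation: 10 microg/mL B. subtilis ClpP at pH 8 with the FRET-FV decapeptide, read at 430 nm after 320 nm excitation. The 20-min minus 0-min signal was scaled between DMSO/no-enzyme wells and ADEP (5.8 microM final).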
TRPML1 inh: human mucolipin-1 channel inhibition; hit rate 0.02% among 390,000; TRPML1-inducible cells, Ca2+ dye fluorescence, FDSS; stronger effect = lower value; inhibition of EC80 agonist-evoked calcium signal; activity change, negative = inhibition, % (test concentration not listed); AID 624415; in the data active means activity change below about -50%; inconclusive means about -30% to -50%; inactive means above about -30%;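 further: stimulus is agonist 54-4 at its EC80 concentration; on the % scale 0 is the no-effect control and ±100 the full control effect; compound concentration not given in the record; the text of the record puts the active cut at -80%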
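TRPML1-DL cells, Tet-induced overnight (~16 h, 37 °C) at 1,500 cells/well, were loaded with Ca8 no-wash dye plus quencher for 45-90 min at room temperature. Compounds were pinned during FDSS kinetic reading; agonist 54-4 at EC80 (4 uM final) then added.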
gsp agonist: gsp mutant agonism. gsp mutant cells, cAMP HTRF, 30 min; control for the full effect not named in the record. hit rate 0.13% among 340,000. AID 624287. Potency, µM (titrated, usually from 76.9 µM), for inactives: at the top dose activation (cAMP increase), hits mostly activators; active = well fitted activation curve with a large enough effect; inconclusive = small, poorly fitted or top-dose-only effect, or another doubt; inactive = no such curve, though single readings can be large or run the other way; cell line not stated here;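 further: phosphodiesterase inhibitor Ro 20-1724 added with compounds to block cAMP breakdown; potency means the concentration at half of the fitted maximal effect; nearly all actives have a fitted effect of over 60% in size; about a fifth of the inactives were tested at one dose only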
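Cells in DMEM/10% FBS with G418 were pretreated with compounds in DMSO plus […] (300 uM stock) for 30 min at 37C. cAMP was measured by HTRF (cAMP-d2 plus anti-cAMP antibody-K) after 30 min at room temperature.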
Menin-MLL FL inh: inhibitors of human menin-MLL interaction, wild-type MLL peptide; Fluorescence polarization, fluorescein-MLL peptide displacement from menin; FP activity change, % at 61.4 µM; 290,000 tested, under 10 active; AID 1766; inconclusive = falling polarisation curve, or a change in total fluorescence; inactive = total fluorescence flat and polarisation flat or rising; no compound was filed as active; the % refers to the polarisation; negative = inhibition;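 further: % of control where 0% means no effect; inhibitors lower the polarisation; unlabelled MLL peptide was the positive control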
An asterisk follows results filed as active; ? = inconclusive; . = no result given; [ ] = another dose, or the depositor's remark.

Value order – gsp antag	TRPML1 ag	ClpP mod	TRPML1 inh	gsp agonist	Menin-MLL FL inh
1) O=C1N/C(=N/N=C/c2ccc(O)cc2)SC1Cc1ccccc1 (configuration not stated)
    4.5%	1.8	.	25.2	8.9%[15.4 µM]	1.1
2) C[C@H](CO)N1C[C@H](C)[C@@H](CN(C)S(C)(=O)=O)Oc2c(NC(=O)Nc3ccccc3)cccc2C1=O
    -12.9%	-0.5	-3.2%	-1.6	12.2%	.
3) O=C(NCc1ccc(Cl)cc1)C(=O)NCC(c1ccc2c(c1)OCO2)N1CCOCC1 (configuration not stated)
    .	0.6	-1.5%	22.5	.	.
4) C=CCNC(=O)c1c(O)c2cccc3c2n(c1=O)CCC3
    -11.8%	.	-7.3%	.	-25.5%	3.0
5) Cc1nc(-c2cccc(NC(=O)c3ccc(-n4cccn4)cc3)c2)cs1
    -31.4%	1.2	10.9%	1.8	-69.2%[inhibitor]	.
6) COc1ccc(-c2nc3sc(CCNC(=O)C(=O)Nc4ccc(C)c(F)c4)c(C)n3n2)cc1
    .	1.1	-4.1%	-3.4	.	.
7) COc1cccc(C(=O)Oc2cc(N)n(S(=O)(=O)c3ccc(C)cc3)n2)c1OC
    7.8%	1.1	7.1%	-4.2	8.1%	-1.1
8) CC1(C)C2CCC1(CS(=O)(=O)N1CCC(C(=O)O)CC1)C(=O)C2 (configuration not stated)
    2.5%	-0.3	0.4%	19.4	7.1%	-1.1
9) O=C(c1cccs1)N1CCN(C(=O)c2cn(-c3ccccc3)nc2-c2ccccc2)CC1
    -12.1%	0.1	-7.5%	82.3	-15.9%[15.4 µM]	.
10) COC(=O)c1sccc1NC(=O)c1cccc(OC)c1
    ?	0.7	-1.3%	-5.1	3.4%	-0.7
11) CN1CCN(c2ccc(CNS(=O)(=O)c3cccc(F)c3)cc2)CC1
    15.1%	-0.5	1.7%	26.7	-0.4%	-0.9
12) Cc1ccc(/C(O)=C2/C(=O)C(=O)N(Cc3cccnc3)C2c2ccccn2)cc1 (configuration not stated)
    2.7%	1.0	-0.7%	-6.0	17.4%[15.4 µM]	2.3
13) O=C(NNC(=O)c1ccncc1)NC1CCCCC1
    3.5%	0.6	-2.3%	-8.9	6.7%	0.7
14) CC1CCC2(CC1)NC(=O)N(CC(=O)N1CC(C)CC(C)C1)C2=O (configuration not stated)
    9.7%	0.4	0.7%	33.9	-2.6%	.
15) N#Cc1ccc(-c2cccs2)nc1SCc1ccc(Cl)cc1Cl
    .	0.5	-14.9%	15.6	.	.
16) Cc1cc(C)c(NC(=O)Cn2c(SCC(=O)NCc3ccccc3)nc3ccccc32)c(C)c1
    .	-1.1	-2.6%	1.6	.	.
17) Cc1ccc2c(c1)N(CC(=O)NC1CCCCC1)C(=O)c1cccnc1O2
    2.1%	4.4	0.7%	-8.5	-17.5%	0.1
18) Cc1cc(=O)n2nc(N(C)CC(=O)NCc3ccccc3C)sc2n1
    .	-0.3	0.8%	12.4	.	.
19) Cc1ccc(C)c(NC(=O)CN(C)C(=O)C2=NNC(=O)CC2)c1
    0.9%	-0.9	-1.8%	15.1	-22.5%	.
20) O=S(=O)(Nc1nc2ccccc2nc1NCc1ccco1)c1cccs1
    ?	-1.0	-12.4%	13.2	-33.6%	16.0
21) CC(=O)Oc1ccc(-c2cccc(C(=O)NCCO)c2)cc1
    -17.0%	-0.9	.	-5.0	1.6%[15.4 µM]	-1.8
22) O=C(CSc1nc2ccccc2n1CC(=O)N1CCCC1)N1CCN(C(=O)c2ccco2)CC1
    -6.8%	-0.3	0.8%	-3.2	-11.6%	-1.3
23) COc1cc(NC(=O)CSc2nc(C3CC3)nc3ccccc23)cc(OC)c1
    6.2%	1.3	.	1.8	-14.1%	-3.4
24) COc1ccc(N2CCN(C(=O)[C@@H](NC(=O)c3cc(OC)cc(OC)c3)C(C)C)CC2)cc1
    7.7%	1.5	.	6.1	9.5%	-7.0
25) O=C1c2cc(Cl)ccc2OC2(CCNCC2)C12CC(c1ccc(Cl)cc1)=NO2 (configuration not stated)
    -8.9%	0.1	-0.6%	-11.2	.	4.3
26) CN(/N=C/C=C/c1ccccc1)C1=NS(=O)(=O)c2ccccc21
    -2.7%	1.5	-3.9%	0.6	-21.6%	0.3
27) CSc1ncc(C(=O)NCc2ccc(C)cc2)c(-c2ccccc2)n1
    .	1.3	-0.9%	20.9	.	.
28) CC1C(=O)O[C@@H]2C[C@@H](C)[C@@H]3CCC(=O)[C@@]3(C)[C@@H](O)[C@H]12 (some centres not stated)
    7.6%	-0.1	1.3%	-2.2	.	-1.2
29) O=C(O)C1=C[C@@H](c2csc3ccccc23)C[C@@H](OCc2ccc(CO)cc2)O1
    8.3%	-0.1	-3.3%	2.8	-36.3%	-3.1
30) CC(=O)c1ccc(NC(=O)c2ccc(N3CCCC3=O)cc2)cc1
    1.8%	1.5	.	7.9	-26.2%[15.4 µM]	.
31) COC(=O)C1=C(C)C(c2cccs2)NC(=O)N1C (configuration not stated)
    11.8%	-0.2	0.9%	-23.4	7.2%	4.0
32) O=C(CCS(=O)(=O)c1cccc2nonc12)NCCc1ccccc1Cl
    4.5%	0.1	-1.3%	-8.1	-40.4%[inhibitor]	0.7
33) COc1ccc(SC[C@H](Cc2ccccc2)N2CCN(CCc3ccccc3)CCC2=O)cc1
    -4.6%	2.0	-5.7%	33.5	.	8.2
34) CCC1(c2ccc(Cl)cc2)NC(=O)N(CC(=O)N2CCN(C(=O)c3ccco3)CC2)C1=O (configuration not stated)
    10.1%	0.4	-6.2%	3.3	-3.1%[15.4 µM]	.
35) Cc1nnc(SCC(=O)N2CCOCC2)s1
    5.4%	-0.4	-0.6%	-2.7	?	-0.4
36) N/C(=N\OC(=O)c1ccc2ccccc2c1)c1ccc(Br)cc1
    -1.9%	0.7	38.1%	-10.3	3.6%	.
37) Cc1c(C)c2cc(Cl)c(O)c(CN3CCCC(C)C3)c2oc1=O (configuration not stated)
    9.1%	-1.0	6.31µM*	5.4	?	0.5
38) O=C(OCc1c(F)cccc1Cl)c1cnccn1
    14.9%	0.3	0.3%	0.3	?	1.3
39) CC(=O)Nc1ccc(S(=O)(=O)NCC(CCC(=O)O)C(F)(F)F)cc1 (configuration not stated)
    2.9%	0.4	.	9.2	8.6%[15.4 µM]	-0.6
40) COC(=O)COc1ccc(S(=O)(=O)N2CCc3ccccc3C2)cc1
    -19.9%	-0.5	-0.5%	1.4	5.1%	3.6
41) c1ccc(Cn2nnnc2CN2CCN(Cc3ccc4c(c3)OCO4)CC2)cc1
    -0.4%	-0.2	-1.5%	-12.4	-1.3%	2.1
42) CCOC(=O)c1ccccc1N/C=C1\CCCCC1=O
    -2.5%	0.4	31.8%	7.8	5.8%	0.4
43) CCn1c2ccccc2c2cc(NC(=O)COC(=O)c3cc(S(=O)(=O)N4CCCCC4)ccc3Cl)ccc21
    -1.6%	-0.2	10µM*	-3.7	-15.6%	5.0
44) CC(C)N(C(=O)COC(=O)CNC(=O)c1ccc(Br)cc1)c1ccccc1
    ?	1.8	-2.2%	1.9	?	0.6
45) O=C1CSC(c2ccc(Cl)c(Cl)c2)N1c1nccs1 (configuration not stated)
    -8.1%	5.2	-2.2%	-18.0	1.3%	.
46) CCn1ccnc1CN1CCC(n2nccc2NC(=O)c2ccccc2OC)CC1
    -13.4%	-0.9	-2.4%	-2.9	-3.1%	.
47) CC(NC(=O)CN(C)CC(=O)Nc1ccc(Cl)cc1)c1ccc(F)cc1 (configuration not stated)
    -7.0%	0.5	-2.5%	1.5	-0.6%	.
48) CCCCCC(=O)Nc1ccc(S(=O)(=O)Nc2nccnc2OC)cc1
    -4.4%	-0.4	25.1µM*	27.6	-36.3%[inhibitor]	0.6
49) Cc1cc(=O)[nH]c(-c2ccccc2OC(F)(F)F)n1
    5.5%	0.3	1.9%	26.0	20.5%	2.3
50) O=C(CCN1C(=O)c2ccccc2S1(=O)=O)NCc1ccc(F)cc1
    11.6%	-0.5	26.2%	0.3	-3.3%	.
51) O=C(CNCc1ccc(Cl)cc1)N1CCc2ccccc2C1
    7.1%	.	-1.1%	.	?	-8.7
52) O=C(NNC(=O)c1ccccc1F)c1ccc(Cl)c(S(=O)(=O)N2CCOCC2)c1
    -6.7%	0.0	0.1%	1.3	3.2%	.
53) CCOC(=O)CN1C(=O)C(Sc2n[nH]c(-c3ccccc3)n2)CCc2ccccc21 (configuration not stated)
    ?	1.4	1.1%	-7.8	1.1%	0.2
54) COc1ccc(NC(=O)c2cc3cc(C)ccc3n2C)c(OC)c1
    -4.9%	0.2	-2.4%	19.6	-11.0%[15.4 µM]	-3.6
55) CCCN(CC(=O)Nc1ccc(OC)c(OC)c1)CC(=O)Nc1ccc(F)c(F)c1F
    -16.6%	-0.7	0.8%	-17.1	-12.8%[15.4 µM]	2.2
56) COc1cccc(N(CC(=O)NC2CCCCCC2)S(=O)(=O)c2ccccc2)c1
    -13.3%	3.5	-0.4%	-4.6	-33.2%[inhibitor]	.
57) O=C(O)CN1C(=O)c2ccc(Oc3cccc4c3C(=O)N(CC(=O)O)C4=O)cc2C1=O
    9.4%	-0.1	-1.2%	-12.4	-29.9%	0.5
58) O=C(CNS(=O)(=O)c1ccc(F)c(Cl)c1)NCCc1ccccc1
    5.0%	0.6	0.5%	0.0	-24.9%	-1.3
59) O=C(NC(CO)C(=O)OCc1ccccc1)OCc1ccccc1 (configuration not stated)
    -19.0%	-0.7	2.9%	-18.8	1.8%[15.4 µM]	.
60) COC(=O)c1ccccc1NC(=O)CCn1c(=O)c2cccn2c2cccnc21
    .	-0.1	-28.3%	-11.4	.	.

Other structures follow:
Value order – gsp antag	TRPML1 ag	ClpP mod	TRPML1 inh	gsp agonist	Menin-MLL FL inh
61) COc1ccc(CSCCc2n[nH]c(=S)n2-c2ccccc2)cc1C
    -12.7%	-0.5	.	13.1	3.1%[15.4 µM]	-3.0
62) CCSc1nnc(NC(=O)/C=C/c2ccco2)s1
    1.6%	0.8	3.8%	10.1	-1.9%	7.2
63) O=C(Nc1ccc(Cl)cc1C(=O)NCC1CCCO1)c1ccc(Cl)cc1Cl (configuration not stated)
    -9.0%	2.9	-1.2%	9.4	-12.7%	3.1
64) O=C(Nc1ccc2nccnc2c1)c1cnccn1
    13.9%	2.6	-13.8%	12.1	9.6%	3.6

An unsorted share of the library. Share with any hit: about 2.1%.
